Bioassay records: PubChem, several laboratories
Mtb bLac sens: beta-lactam sensitization of Mtb H37Rv. M. tuberculosis H37Rv growth with meropenem, percent inhibition; hits of this screen are not shown here. inhibition, % at 25 µM. 330,000 tested, 0.27% active. AID 434955;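 active means about 74% or more and at least 40 points above the plate without the antibiotic, then above 30% in a dose series; inconclusive means first-round hits that could not be retested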;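 further: growth measured after seven days incubation then overnight dye step; 0% = bacteria only wells and 100% = bacteria with antibiotic; twin plates without the antibiotic show which effects depend on it; some results filed as inactive read as strong as hits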
RecA splice inh: inhibitors of M. tuberculosis RecA intein splicing; P9WHJ3; cell-free RecA intein splicing, fluorescence; inhibition, %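 (about 9 µM by stock and volumes)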; 290,000 tested, 0.75% active; in the data active means inhibition above about 30%; inconclusive means no clear call, values can overlap the other calls;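 further: 0% = vehicle wells and 100% = reference inhibitor control wells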
Target sequence (P9WHJ3 whole entry, looked up, canonical isoform): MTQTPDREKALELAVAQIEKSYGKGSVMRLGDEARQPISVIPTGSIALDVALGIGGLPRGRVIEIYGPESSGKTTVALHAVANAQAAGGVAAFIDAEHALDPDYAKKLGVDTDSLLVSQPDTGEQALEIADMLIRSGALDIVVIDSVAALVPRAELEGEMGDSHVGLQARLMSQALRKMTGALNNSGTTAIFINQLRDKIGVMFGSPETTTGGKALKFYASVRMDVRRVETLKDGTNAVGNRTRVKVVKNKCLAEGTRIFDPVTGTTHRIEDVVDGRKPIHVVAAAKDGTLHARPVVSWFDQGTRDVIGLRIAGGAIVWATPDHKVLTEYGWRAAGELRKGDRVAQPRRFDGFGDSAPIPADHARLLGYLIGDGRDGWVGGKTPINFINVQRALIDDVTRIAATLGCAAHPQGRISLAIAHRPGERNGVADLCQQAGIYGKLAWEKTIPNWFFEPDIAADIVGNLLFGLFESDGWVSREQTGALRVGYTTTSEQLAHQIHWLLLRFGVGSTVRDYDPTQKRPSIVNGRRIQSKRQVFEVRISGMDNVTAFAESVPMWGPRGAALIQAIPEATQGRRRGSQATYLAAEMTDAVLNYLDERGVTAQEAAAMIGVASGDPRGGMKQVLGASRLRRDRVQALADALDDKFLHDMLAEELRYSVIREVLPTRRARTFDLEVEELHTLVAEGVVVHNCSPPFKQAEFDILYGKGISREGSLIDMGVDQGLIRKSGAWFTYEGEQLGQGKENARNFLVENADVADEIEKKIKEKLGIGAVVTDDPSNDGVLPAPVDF
YopH PTP inh: blocks Yersinia enterocolitica YopH tyrosine phosphatase | AID 898 | inhibition, %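 (about 10 µM by stock and volumes)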 | 140,000 tested, 0.16% active | fluorescence Ex485/Em525;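 active means inhibition of 50% or more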;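 further: controls were vehicle for no effect and minimum signal wells for full effect; inactives centre near -20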
Arbovirus anti: antivirals against arbovirus infection. 200,000 tested, 0.37% active. inhibition, % at 10 µM. arbovirus infection cell-based antiviral screen. AID 1251;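 active means inhibition from about 30%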;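 further: bluetongue infection of BSR cells; cell survival read as ATP light after 72 h; 0% = infected wells without compound and 100% = uninfected wells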
Mtb growth: M. tuberculosis H37Rv growth inhibitors, H37Rv strain (AID 1626). M. tuberculosis H37Rv growth inhibition; higher % means a stronger effect. inhibition, % at 10 µM; hits with a dose series show IC50 in µM. 220,000 tested, 0.95% active;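 active means confirmed in a dose series; inconclusive means inhibition above 80% but not taken into the dose series; inactive means below 80% or under 30% at every dose of the series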;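 further: bacteria incubated seven days before Alamar blue readout; 0% = bacteria only wells and 100% = bacteria with antibiotic wells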
Arbovirus anti repeat: second read-out of Arbovirus anti, no call of its own (marks repeat the call); inhibition, %; measured here: 10K subset replicate screen; many hits read low in the repeat;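 first of two repeat runs on a subset; 0% = infected and 100% = uninfected wells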
* marks the source's active call; other numbers are inactive results; i = inactive; ? = inconclusive; . = no result given; & = joins results of further samples. This is a subset. The share of hits here may be higher or lower than overall.

SMILES | Mtb bLac sens | RecA splice inh | YopH PTP inh | Arbovirus anti | Mtb growth | others
CC(C)Nc1nc(-c2ccncc2)nc(-c2ccccc2)c1C#N | 0.5 | 0.0 | . | . | .
CCNCc1nc2cc(Cl)ccc2c(=O)[nH]1 | 4.7 | 0.0 | . | 3.3 | -2.5%
CCOC(=O)C1=C(CC)Nc2ccccc2N=C1NC(=O)c1ccc(OC)c(S(=O)(=O)N2CCCCC2C)c1 (stereo not drawn) | 3.0 | -4.3 | . | 4.0 | 5.7%
O=C(O)CCC(=O)Nc1ccc(C(=O)OCC(=O)c2ccc(Cl)cc2Cl)cc1 | -0.1 | 4.0 | . | -1.2 | -0.3%
O=C(NCc1ccccc1Cl)c1cnc2n(c1=O)CCS2 | -6.2 | -0.1 | -27.2 | 15.5 | 1.7% | Arbovirus anti repeat=0.4
O=C(NCCN1CCOCC1)c1cc(-c2ccc(Cl)cc2)on1 | -8.3 | -0.5 | -52.0 | -2.7 | -3.3%
CC(C)(C)NC(=O)C(c1cccs1)N(Cc1ccc(F)cc1)C(=O)c1csnn1 (stereo not drawn) | -1.1 | 2.4 | . | -6.3 | -4.8%
O=C(CSc1ccc2nnc(CCNC(=O)c3ccc(F)cc3)n2n1)NCc1ccco1 | 4.0 | -0.3 | . | . | .
CCN1CCN(c2ncc(C(=O)N3CCCc4ccccc43)c3ccccc23)CC1 | -1.8 | 2.2 | -25.7 | -8.8 | 2.1%
O=C(Nc1cc(Cl)ccc1-n1cncn1)c1ccco1 | -1.2 | 0.3 | . | . | .
CC1CCCCC1NC(=O)c1ccc(S(=O)(=O)NNC(=O)c2ccncc2)cc1 (stereo not drawn) | 2.2 | -3.0 | . | . | -7.2%
CN(C)CCN(C(=O)c1cccs1)c1nc2cc3c(cc2s1)OCCO3 | 4.1 | -1.0 | . | . | .
CC(OC(=O)C1CCN(S(=O)(=O)c2ccc(Cl)cc2)CC1)C(=O)NC1CCCCC1C (stereo not drawn) | -24.6 | -3.2 | . | . | .
COc1ccc(N2CCN(C(=O)COCC(=O)O)CC2)cc1 | -9.2 | -2.9 | . | 2.5 | 0.6%
Cc1cccc(N2CCN(C(=O)Cn3cccc3)CC2)c1C | -7.3 | -0.5 | -25.8 | -1.6 | 3.9%
NC(=S)N/N=C/c1ccccc1 | 96.6 | 3.2 | 1.0 | -1.3 | 17.0%
CC1Cc2cc(/C=C3/SC(N4CCC(C(N)=O)CC4)=NC3=O)ccc2O1 (stereo not drawn) | -11.2 | 0.9 | . | . | -0.6%
COc1cc(NS(=O)(=O)c2ccc(NC(=S)NC(=O)c3sc4cc(F)ccc4c3Cl)cc2)nc(OC)n1 | 8.8 | 4.7 | -58.9 | 10.2 | -4.5%
CCCCC#Cc1cncc(C(=O)NN)c1 | 33.1 | 1.9 | . | . | 7.3%
COCCOC(=O)C1=C(C)NC(=O)NC1c1cn(-c2ccccc2)nc1-c1cccs1 (stereo not drawn) | -2.7 | -2.3 | -28.7 | 7.6 | -2.8%
O=C(CSc1nnc(-c2cccs2)n1-c1ccccc1)Nc1ccccc1 | 2.5 | -0.6 | -28.6 | -19.0 | -3.8%
CCOC(=O)C1CCN(C=Nc2cc(C)on2)CC1 | -13.5 | -2.1 | -47.1 | -2.2 | -0.3%
Cc1cccc(C(=O)N2CCCN(C(=O)c3cccc(C)c3)CC2)c1 | -2.0 | -10.0 | -16.6 | 1.4 | -2.5%
S=C(Nc1cccnc1)N1CCc2ccccc21 | 4.7 | -1.0 | . | . | .
Cc1cccc(OCc2nnc(SCC(=O)N3CCCC3)n2C)c1 | 5.2 | -0.4 | 3.3 | 11.8 | -7.3%
O=C(Oc1c(-c2ccccc2)c(=O)n2c3c(cccc13)CC2)c1ccccc1 | 96.8 | 14.6 | . | . | .
CN1CCN(c2ccc(NC(=O)c3cccs3)cc2)CC1 | -1.8 | . | . | -4.7 | -8.7%
Cc1ccc(SCCC(=O)NC(C)C)cc1 | -2.5 | . | -15.4 | -0.2 | -3.0%
CCCc1cc(=O)oc2cc(O[C@@H]3O[C@H](CO)[C@@H](O)[C@H](O)[C@H]3O)ccc12 | ? | -0.1 | . | . | .
O=C(CSc1nc2[nH]ncc2c(=O)[nH]1)Nc1ccccc1F | -10.7 | -3.6 | . | . | .
COc1ccccc1Nc1nc(NCc2ccco2)nc(N)c1[N+](=O)[O-] | -0.7 | 3.1 | . | . | 2.8%
Cc1cc2c3c(c1)C1(C(=O)N3C(C)(C)CC2C)C(C#N)=C(N)OC2=C1C(=O)CC(C)(C)C2 (stereo not drawn) | -0.5 | 2.7 | 32.7 | -4.7 | -14.1%
COc1cc(C)ccc1N(CCCN1C(=O)c2cccc3cccc(c23)C1=O)C(=O)c1cccs1 | 0.1 | 6.2 | -12.1 | -9.5 | -2.8%
O=S(=O)(O)c1nc2ccccc2[nH]1 | 4.0 | 0.0 | . | . | -0.2%
CCOCc1nnc(NC(=O)C2CC(=O)N(C3CCCC3)C2)s1 (stereo not drawn) | 2.8 | 0.2 | . | . | .
O=C(O)C1CCCCC1C(=O)NCc1ccccn1 (stereo not drawn) | -0.4 | -0.2 | . | -2.9 | -5.4%
CCc1ccc(C2(C)SC(NC(C)=O)=NN2C(C)=O)cc1 (stereo not drawn) | -6.3 | -1.6 | 8.9 | -0.2 | -1.5%
CCC(Oc1ccccc1)C(=O)NC1C(=O)N2C1SC(C)(C)C2C(=O)O (stereo not drawn) | 2.3 | -1.5 | . | 1.5 | -4.4%
Clc1ccc(-c2nnc(SCc3nc4ccccc4[nH]3)o2)c(Cl)c1 | -4.4 | 2.4 | -9.8 | 4.4 | 2.1%
CCCCNC(=O)N(c1c(N)n(Cc2ccccc2)c(=O)[nH]c1=O)C1CCCC1 | 2.3 | 1.0 | . | 6.8 | -4.7%
O=C(O)CC1COc2ccccc2N1C(=O)c1ccccc1Cl (stereo not drawn) | -8.2 | 2.7 | . | 2.9 | -0.8%
CN(CCCC(=O)Nc1ccccc1F)S(=O)(=O)c1ccc(F)cc1 | -1.0 | -0.9 | . | . | .
COc1ccc(-c2nnc(-c3ccc(Br)o3)o2)cc1OC | -3.4 | -1.2 | -42.7 | 34.4* | -7.2%
Cc1[nH]n2c(=O)c3c(nc2c1-c1ccccc1)CCCC3 | 99.8 | 1.1 | -34.1 | -15.2 | 2.88µM*
CCOc1ccccc1OCCn1nc2ccccc2n1 | -24.1 | 1.2 | . | . | .
CCN(CC)C(=O)c1ccc(NC(=O)CCCSc2ccccc2)cc1 | 4.7 | 0.8 | . | 17.8 | 3.1%
COc1ccc(Cl)cc1C(=O)OCC(=O)N(C)CC(=O)Nc1ccc(F)cc1 | 4.4 | -1.3 | . | . | .
Cc1[nH]n2c(=O)c3c(nc2c1-c1ccc(Cl)cc1)CCC3 | 99.2 | -0.6 | -22.7 | -1.8 | 13.3µM* | Arbovirus anti repeat=-13.5
O=C(COc1ccc2c(c1)OCO2)Nc1cccc(F)c1 | 3.9 | 1.3 | . | . | .
Cn1c(=O)[nH]c(=O)c2c1nc1n2CCN1Cc1ccccc1 | 6.5 | 1.1 | -17.4 | 7.7 | 2.9%
Cc1cc(NC(=O)c2ccccc2)no1 | -2.3 | -1.4 | . | . | .
O=S(=O)(NCC(c1cccnc1)N1CCN(c2ccccc2)CC1)c1cccs1 (stereo not drawn) | -0.2 | 3.7 | -0.6 | 4.4 | 4.1%
CC1CC(OCC(O)CN2CCCCC2C)CC(C)(C)C1 (stereo not drawn) | -3.2 | 2.5 | . | . | .
COc1nc(N)nc2nc[nH]c12 | 1.9 | -2.7 | . | . | .
N#Cc1c[nH]n2c(=O)cc(Cc3ccccc3)nc12 | 12.0 | -0.7 | -30.2 | 4.0 | -4.4%
CCCCn1cc(S(=O)(=O)c2ccccc2)c(=O)c2cc(C)ccc21 | ? | -0.7 | . | . | .
CCC1CCCCN1C(=O)CSc1nc2c(c(=O)n1C)SC(C)C2 (stereo not drawn) | -2.4 | -5.3 | . | . | .
O=C(CCc1ccccc1)N=C1SC2CS(=O)(=O)CC2N1c1cccc(F)c1 (stereo not drawn) | -6.3 | 5.3 | . | . | .
Oc1ccccc1C1=NOC(O)(C(F)F)C1 (stereo not drawn) | 2.5 | -0.2 | 1.9 | 8.6 | 0.3%
O=S(=O)(NCc1ccccc1)c1cnc[nH]1 | 1.1 | 1.5 | -49.3 | 3.4 | 1.3%

Additional records follow.
SMILES | Mtb bLac sens | RecA splice inh | YopH PTP inh | Arbovirus anti | Mtb growth | others
COc1ccc(-n2c(SCC(=O)C(C)(C)C)nc3ccsc3c2=O)cc1 | -1.5 | . | . | -7.2 | 9.9%
Nc1c(Cl)ncnc1NCCO | -1.0 | 3.7 | . | -2.3 | -4.3%&-2.5%
Cc1ccc(CSc2ncnc3c2cnn3-c2ccc(C)cc2)cc1 | -2.8 | -0.9 | 5.7 | 14.2 | 13.8%
CCn1c(SCC(=O)Nc2ccc(OC)c(OC)c2)nc2c(c1=O)SCC2 | -2.3 | -0.1 | . | . | .
O=C1CC(c2ccco2)Cc2c1cnn2-c1nc2ccccc2s1 (stereo not drawn) | 4.5 | 1.5 | -10.8 | -4.8 | -0.2%
CN(C(=O)COC(=O)c1cc2c(s1)CCCCC2)c1ccccc1 | 2.6 | 4.7 | . | . | .
O=[N+]([O-])c1ccc(-n2cnc3ccccc32)c([N+](=O)[O-])c1 | 98.7 | -0.2 | . | -14.5 | 5.9%
CC1Cc2cccc3c(O)c(C(=O)c4nn[nH]n4)c(=O)n1c23 (stereo not drawn) | 18.9 | -2.9 | -17.0 | 11.6 | 7.5%
CC(C)Sc1nnc([C@@H](N)Cc2ccccc2)o1 | -10.1 | 0.4 | -14.6 | 7.0 | -1.3%
CC(C)CCNC(=O)c1sc2ccc(S(=O)(=O)N3CCCCC3)cc2c1N | 26.9 | 1.8 | -17.4 | -2.4 | 7.2%
Cc1ccc(N(CC(=O)Nc2ccccc2-c2ccccc2)S(=O)(=O)c2ccccc2)cc1 | 5.6 | . | -2.8 | -7.9 | 12.3%
O=C1C(c2cc(=O)c3ccccc3[nH]2)=C(O)c2ccccc21 | 25.1 | -2.9 | -33.5 | 19.4 | 7.1%
Cc1ccc2c(CN3CCN(CCO)CC3)cc(=O)oc2c1 | 3.4 | 9.6 | -19.9 | 2.7 | 17.0%
NC(=O)[C@H]1CC2(CC(c3cccc(NC(=O)CC(c4ccccc4)c4ccccc4)c3)=NO2)CN1C(=O)C(c1ccccc1)c1ccccc1 (stereo partly drawn) | 11.5 | 11.2 | . | . | 50.8%
COC(=O)COc1ccc(S(=O)(=O)Nc2ccc3c(c2)OCCO3)cc1C | 1.8 | -1.4 | . | . | .
C=CCN1C(=O)SC(Cc2cccc(OC)c2O)C1=O (stereo not drawn) | 2.8 | -3.1 | . | 2.6 | 5.4%
CCCCn1c(=NC(=O)c2cccnc2)c(C#N)cc2c(=O)n3cccc(C)c3nc21 | 2.1 | i | 7.2 | -8.3 | .

Some of these compounds in order of SMILES length, falling.
SMILES | Mtb bLac sens | RecA splice inh | YopH PTP inh | Arbovirus anti | Mtb growth | others
NC(=O)[C@H]1CC2(CC(c3cccc(NC(=O)CC(c4ccccc4)c4ccccc4)c3)=NO2)CN1C(=O)C(c1ccccc1)c1ccccc1 (stereo partly drawn) | 11.5 | 11.2 | . | . | 50.8%
Cc1ccc(N(CC(=O)Nc2ccccc2-c2ccccc2)S(=O)(=O)c2ccccc2)cc1 | 5.6 | . | -2.8 | -7.9 | 12.3%
O=[N+]([O-])c1ccc(-n2cnc3ccccc32)c([N+](=O)[O-])c1 | 98.7 | -0.2 | . | -14.5 | 5.9%
COC(=O)COc1ccc(S(=O)(=O)Nc2ccc3c(c2)OCCO3)cc1C | 1.8 | -1.4 | . | . | .
CCn1c(SCC(=O)Nc2ccc(OC)c(OC)c2)nc2c(c1=O)SCC2 | -2.3 | -0.1 | . | . | .
CC1Cc2cccc3c(O)c(C(=O)c4nn[nH]n4)c(=O)n1c23 (stereo not drawn) | 18.9 | -2.9 | -17.0 | 11.6 | 7.5%
O=C1C(c2cc(=O)c3ccccc3[nH]2)=C(O)c2ccccc21 | 25.1 | -2.9 | -33.5 | 19.4 | 7.1%
CN(C(=O)COC(=O)c1cc2c(s1)CCCCC2)c1ccccc1 | 2.6 | 4.7 | . | . | .
Cc1ccc(CSc2ncnc3c2cnn3-c2ccc(C)cc2)cc1 | -2.8 | -0.9 | 5.7 | 14.2 | 13.8%
Cc1ccc2c(CN3CCN(CCO)CC3)cc(=O)oc2c1 | 3.4 | 9.6 | -19.9 | 2.7 | 17.0%
C=CCN1C(=O)SC(Cc2cccc(OC)c2O)C1=O (stereo not drawn) | 2.8 | -3.1 | . | 2.6 | 5.4%
Nc1c(Cl)ncnc1NCCO | -1.0 | 3.7 | . | -2.3 | -4.3%&-2.5%
